Bioassay records: PubChem, Fisher Drug Discovery Resource Center
NPYLR7 ag – agonists of mosquito NPYLR7 receptor, primary screen, cell-based, Aedes aegypti, calcium fluorescence, mosquito biting behavior. actives 0.15% (n = 270,000). HEK293T NPYLR7/Galpha15, GCaMP6s calcium fluorescence. activation, % at 10 µM. Aedes aegypti neuropeptide Y-like receptor 7 (NPYLR7). AID 1259423, 2018; in the data active = activation above about 40%;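 note: 0% = vehicle and 100% = reference agonist at the receptor; some compounds past the cut are filed as inactive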
NPYLR7 ag max-min – second read-out of NPYLR7 ag, no call of its own (marks repeat the call); activation, %; measured here: Max-Min RFU normalised activation; some inactives read as strong as hits;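 span of the calcium signal over five minutes; 0% = vehicle and 100% = native peptide agonist; compound fluorescence can raise it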
* = called active by the depositor; & = joins results of further samples.

SMILES	NPYLR7 ag	NPYLR7 ag max-min
Cn1nnc2c(=O)n(Cc3cccc(F)c3)cnc21	0	6
Cc1cc(C)nc(-n2ncc3c2CC(c2ccccc2)CC3=O)n1 (stereo not drawn)	17	9
COCCn1c(C)cn2c3c(=O)n(CC(=O)c4ccc(F)cc4)c(=O)n(C)c3nc12	6	3
COC(=O)CN1CC2(CCN(C(=O)C(n3cccc3)C(C)(C)C)CC2)OC1=O (stereo not drawn)	1	25
Cc1cc(NC(=O)c2c(-c3ccccc3Cl)noc2C)no1	3	2
COc1ccc(N2C(=O)CN(Cc3ccco3)C3CS(=O)(=O)CC32)cc1Cl (stereo not drawn)	1	1
Cc1ccc(NC(=O)N(CC(=O)N2c3ccccc3-n3cccc3C2c2ccco2)C2CC2)c(C)c1 (stereo not drawn)	16	21
Cc1cccc(-n2cc(CN(C)Cc3ccno3)c(-c3cccc(F)c3)n2)c1	15	2
CCOc1ccc(-c2cc3c(=O)n(CC(N)=O)ccn3n2)cc1	20	11
O=C(NCC1CC1)c1nn(-c2cccc(F)c2)c(=O)n(Cc2cccc(Cl)c2)c1=O	1	2

Given as a markdown table: 2 of the compounds above
| Compound | NPYLR7 ag | NPYLR7 ag max-min |
| --- | --- | --- |
| Cc1cc(NC(=O)c2c(-c3ccccc3Cl)noc2C)no1 | 3 | 2 |
| COc1ccc(N2C(=O)CN(Cc3ccco3)C3CS(=O)(=O)CC32)cc1Cl (stereo not drawn) | 1 | 1 |

Next part:
SMILES	NPYLR7 ag	NPYLR7 ag max-min
COCCCn1c(SCC(=O)C(C)(C)C)nnc1-c1cc(-c2ccccc2)nc2ccccc12	-3	5
O=C1NC(=O)C2C1C(c1ccccc1F)NN2Cc1ccccc1 (stereo not drawn)	0	-1
O=C(Nc1ccc(C2SCC(=O)N2c2cc(F)ccc2F)cc1)c1ccc(F)cc1 (stereo not drawn)	14	13
O=C(COc1ccc(-c2nccn2C2CCCC2)cc1)N1CCOCC1	3	0
OC(COc1ccccc1)CN(Cc1ccc(F)cc1F)CC1CC(c2ccc(F)cc2)=NO1 (stereo not drawn)	-3	0
CCn1nccc1NC(=O)c1csc([C@@H]2O[C@H](CO)[C@H](O)[C@H](O)[C@H]2O)n1	3	1
CS(=O)(=O)c1ccc(-c2cccc3c2OC(CNC(=O)c2cc[n+]([O-])cc2)C3)cc1 (stereo not drawn)	76*	63*
O=C(Nc1ccc(-c2nc3ccccc3o2)cc1)c1ccco1	8	5
CN1CCN(S(=O)(=O)c2cccs2)c2cnccc21	1	57
Cc1nnc(SCCn2c(Br)nc3c2c(=O)n(C)c(=O)n3C)s1	7	0
Cc1ccccc1-n1c(Cc2ccccc2)nnc1SCCCCC(=O)N1CCN(C(=O)c2ccc([N+](=O)[O-])cc2)C(C)C1 (stereo not drawn)	-1	7
CONC(=O)CCc1cc(C(C)(C)C)c(O)c(C(C)(C)C)c1	-4	-4
O=C1CCC2(CCN1)CCN(C(=O)c1cnc(Nc3ccccc3)nc1)CC2	1	-2
O=C(NC1CCCC1)c1ccc(N2CCC(NCc3cnn(-c4ccccc4)n3)CC2)cc1	13	1
CC(c1ccccc1)N(Cc1cccc(Oc2ccccc2)c1)Cc1nc(C(=O)O)co1 (stereo not drawn)	13	20
CC1CN(Cn2[nH]c(/C=C/c3ccc(F)cc3)nc2=S)CC(C)O1 (stereo not drawn)	-1	3
Cc1nc(CNC(=O)C2CCCN(C3CCN(Cc4cccnc4)CC3)C2)no1 (stereo not drawn)	1	-1
CC1CCN(C(=O)c2ccc(NC(=O)N(C)CC(O)CN3CCOCC3)cc2)CC1 (stereo not drawn)	4	2
CCOC(=O)C1=C(C)N=c2s/c(=C\c3c(F)cccc3Cl)c(=O)n2C1c1ccc(OC)cc1 (stereo not drawn)	-5	-2
OCCN1CCN(Cc2nnc(Cc3ccccc3)o2)CC1	2	-1
CC(C)c1cc(C2CCN(C(=O)c3ccccc3-c3ncc[nH]3)CC2)[nH]n1	5	4
CCN(CC)S(=O)(=O)c1ccc(CN2C(=O)C3(CC(=O)N(Cc4ccccc4)C3=O)c3cc(Cl)ccc32)cc1 (stereo not drawn)	7	-3
CCOC(=O)C1(C)CCCCN1C(=O)c1ccc(OC)c(OC)c1 (stereo not drawn)	0	-1
COc1cccc2c1OCC(C(=O)N(C)Cc1noc(CC(C)C)n1)C2 (stereo not drawn)	0	7
CC(C)NC(=O)NC(C)c1nc(-c2ccccc2)cs1 (stereo not drawn)	18	8
N=C1c2ccccc2CN1c1ccc2c(c1)Cc1ccccc1-2	3	2
O=C(CCNC(=O)c1ccco1)OCc1cc(=O)n2cc(Br)ccc2n1	0	-2
CC(C)C(=O)N1CCC1(C)C(=O)Nc1cc(C2CC2)nn1C (stereo not drawn)	-4	-5
COc1cccc(C(CNC(=O)CSc2ccc(F)c(F)c2)N(C)C)c1 (stereo not drawn)	2	1
Cc1ccc(S(=O)(=O)NC(=O)Cn2nnc(-c3ccccc3)c2COc2ccc3ccccc3c2)cc1	4	1
CC(=O)c1cccc(NC(=O)C(Sc2nncn2C)c2ccccc2)c1 (stereo not drawn)	-2	5
Cc1cnc2c(c1SCC(=O)Nc1cccc3ccccc13)c(=O)n(C)c(=O)n2C	7	12
Cc1nc(N2C[C@H](O)[C@@H](N3CCCC3)C2)c2cnn(C)c2n1	1	10
COCCN(Cc1ccccc1OC)CC(O)COCC(C)C (stereo not drawn)	-3	9
CCN(CC)C1CCN(c2ccc(-c3ccccc3OC)nn2)C1 (stereo not drawn)	3	1
O=C(NCc1cccnc1N1CCOCC1)c1cn(CC2CCCNC2)nn1 (stereo not drawn)	-3	-2
O=C(NC1CCN(c2ccccc2C(=O)NCc2ccc3c(c2)OCO3)CC1)c1ccc(C(F)(F)F)cc1	-2	-5
CC(NC(=O)CCl)c1ccc2c(c1)OCO2 (stereo not drawn)	-6	-9
O=C1CCCCN1CCNCc1cn(-c2ccc(F)cc2)nc1-c1ccccc1Cl	3	-6
CCOC(=O)C1CCCN(/C=C2\Oc3cc(O)ccc3C2=O)C1 (stereo not drawn)	-1	-7
O=C(Cc1cccs1)NCCOc1ccc(-c2ccc(F)cc2)nn1	-3	-3
CC(C)c1cc(C(=O)N2CCCC2c2ccccn2)n(C)n1 (stereo not drawn)	2	0
CC(=O)CN1N=C(C)Cn2c1nc1c2c(=O)n(Cc2ccc(Cl)cc2Cl)c(=O)n1C	-7	-9
CN(Cc1ccccc1-c1ccccc1)C(=O)C1CNC(=O)N1 (stereo not drawn)	5	1
CC=CCn1c(SCCO)nc2c1c(=O)[nH]c(=O)n2C	-1	-4
CC(=O)c1cccc(NC(=O)c2ccc(C)c(S(=O)(=O)N3CCOCC3)c2)c1	16	14
O=c1ccc(-c2ccc(Cl)cc2)nn1CCNS(=O)(=O)c1ccccc1C(F)(F)F	12	8
COc1ccc(-c2csc(=Nc3cccc(C(C)=O)c3)n2CCc2cccc(C(F)(F)F)c2)cc1	0	-6
CCc1nc2c(OCc3ccc(OC(F)F)cc3)cccn2c1N(C)C(=O)c1cccs1	-12	-13
O=C(Nc1ccccc1)C1CCN(c2ccc(-c3ccco3)nn2)CC1	-4	-10
New compounds follow:
SMILES	NPYLR7 ag	NPYLR7 ag max-min
O=c1nc(SCc2ccc(C(F)(F)F)cc2)nc2ccccn12	11	10
Cc1ccc(N2C(=O)CC(N3CCN(S(=O)(=O)c4ccc(F)c(F)c4F)CC3)C2=O)c(C)c1 (stereo not drawn)	-7	-12
COCCN1CCN(CC2CC2)C(c2ccncc2)CC1=O (stereo not drawn)	24	13
O=C1c2ccccc2C(=O)N1n1cnnc1	4	4
CN(Cc1n[nH]c(=O)[nH]1)Cc1cn(Cc2ccccc2)nc1-c1ccc2c(c1)OCO2	0	-3
CNc1cc(Nc2ccccc2)c2c3c(onc13)-c1ccccc1C2=O	-15	-20
CC(C)(C)c1ccc(C(=O)N2CCC2(C)C(=O)Nc2cccc3cccnc23)cc1 (stereo not drawn)	13	13
COc1ccc(C)cc1NC(C)c1nc2ccccc2n1C(F)F (stereo not drawn)	6	3
Cc1ccccc1Cc1sc(N)nc1C	0&8	-2&6
Cc1ccccc1N1C(=O)c2cc(S(N)(=O)=O)c(Cl)cc2NC1C (stereo not drawn)	-10&-1&-4	-14&-6&-18
Cc1ccc(C)c(OCCCC(C)(C)C(=O)NCCCN(C)c2ccccc2)c1	-8	-9
CC(Cc1ccc2c(c1)OCO2)CN1CCn2c(nnc2C(=O)N2CCCCC2)C1 (stereo not drawn)	1	-2
Cc1cc(C(=O)N(CCCN2CCOCC2)c2nc3c(C)ccc(C)c3s2)on1	1	5
CCCn1nnnc1Cn1nc(C)c(C#N)c1N	0	13
c1ccc(C2=NN(c3ccccc3)CC2)cc1	-6	-8
CN(Cc1ccccc1)C(=O)c1ccc(CSc2nc(N(C)C3CCCCC3)cc(C(F)(F)F)n2)o1	-9	-4
Brc1ccc2nc(CSc3nc4ccccc4s3)cn2c1	-13	-16
Cn1nnc2c(=O)n(CC(N)=O)cnc21	2	10
CCc1cccc(NC(=O)CCC(=O)NCc2cnc(C)cn2)c1	-2	-5
C1COC(COCCN2CCCC2c2noc(C3CC3)n2)C1 (stereo not drawn)	-1	-3
Cc1cc2nc(CN3CCCC(CCc4ccc(F)cc4F)C3)cc(=O)n2[nH]1 (stereo not drawn)	10	9
COc1cccc(CCN2CCC(C(=O)NC(c3ccc(Cl)cc3)c3ccsc3)CC2)c1 (stereo not drawn)	28	20
C=CCc1ccc(OCCn2cnc3ccccc3c2=O)c(OC)c1	5&-6	5&7
C=CCNCC(=O)N(Cc1ccccc1)Cc1ccc(C)s1	-6	-15
CC(=O)Oc1ccc(CN2C(=O)C3(CCC3)ON=C2c2cccc(Cl)c2)cc1	-4	-3
CN(C)c1cccc(-c2ccnc3n[nH]c(-c4cccc(Cl)c4)c23)c1	4	3
CCC(C)N(Cc1ccc(CO)o1)Cc1ccccc1Cl (stereo not drawn)	-9	-14
CN1CCN2CCN(C(=O)C(=O)Nc3ccccc3Cl)CC2C1=O (stereo not drawn)	8	5
Oc1[nH]c2ccc(F)cc2c1N=Nc1ncc(Cl)cc1Cl	4	2
O=C(O)c1ccccc1N=Nc1c(O)[nH]c2ccccc12	-3	-6
COc1ccccc1N1CCC(NC(C)c2c(C)nn(C)c2C)CC1 (stereo not drawn)	13	10
Cc1cc(C)cc(C(=O)Oc2coc(CSc3ncccn3)cc2=O)c1	-12	-11
Nc1ccc(O)c(C(=O)O)c1	-7&18	-11&9
Cc1cc(=O)[nH]c(NN=Cc2ccc3c(c2)OCCO3)n1	1	0
O=S(=O)(CCc1ccncc1)c1ccccc1	4	-2
CC1CN(Cn2[nH]c(C(C)(C)C)nc2=S)CCO1 (stereo not drawn)	-3	0
COCCc1nc2ccc(C(=O)N3CCN(c4ccccc4C)CC3C)cc2o1 (stereo not drawn)	17	9
CC(C)C(=O)NC(NC(=O)C(C)C)c1ccc(Br)cc1	4	1
CN(CCC1CCOCC1)C(=O)CC1C(=O)NCCN1CC1CCCCC1 (stereo not drawn)	-3&2	-3&3
CCCN(CC)c1ccc(C(=O)N2CCC(C(=O)N3CCC(C(N)=O)CC3)CC2)cc1	6	4
COCCNC(=O)c1c(NC(=O)c2ccc([N+](=O)[O-])cc2)sc2c1CCCC2	4	2
CC(C)C1CN(C(=O)C2CC=CCC2)CCS1 (stereo not drawn)	0	-4
COCCN(CC(=O)N(CCc1c[nH]c2ccccc12)Cc1ccc(F)cc1)C(=O)Nc1ccc(Br)cc1	29	32
O=C(C/C=C/c1ccc(F)c(F)c1)c1ccc(Br)cc1	-2	-4
Cc1ccc(Nc2nc(NCc3ccc4c(c3)OCO4)nc3nccnc23)c(C)c1	1	-1
CCSc1ncnc2c1sc1nc3c(cc12)COC(C)(C)C3	18	8

23 of the compounds above, with values under each structure.
Order of values: NPYLR7 ag, NPYLR7 ag max-min
C=CCNCC(=O)N(Cc1ccccc1)Cc1ccc(C)s1
 : -6, -15
CC(=O)Oc1ccc(CN2C(=O)C3(CCC3)ON=C2c2cccc(Cl)c2)cc1
 : -4, -3
CN(C)c1cccc(-c2ccnc3n[nH]c(-c4cccc(Cl)c4)c23)c1
 : 4, 3
CCC(C)N(Cc1ccc(CO)o1)Cc1ccccc1Cl (stereo not drawn)
 : -9, -14
CN1CCN2CCN(C(=O)C(=O)Nc3ccccc3Cl)CC2C1=O (stereo not drawn)
 : 8, 5
Oc1[nH]c2ccc(F)cc2c1N=Nc1ncc(Cl)cc1Cl
 : 4, 2
O=C(O)c1ccccc1N=Nc1c(O)[nH]c2ccccc12
 : -3, -6
COc1ccccc1N1CCC(NC(C)c2c(C)nn(C)c2C)CC1 (stereo not drawn)
 : 13, 10
Cc1cc(C)cc(C(=O)Oc2coc(CSc3ncccn3)cc2=O)c1
 : -12, -11
Nc1ccc(O)c(C(=O)O)c1
 : -7&18, -11&9
Cc1cc(=O)[nH]c(NN=Cc2ccc3c(c2)OCCO3)n1
 : 1, 0
O=S(=O)(CCc1ccncc1)c1ccccc1
 : 4, -2
CC1CN(Cn2[nH]c(C(C)(C)C)nc2=S)CCO1 (stereo not drawn)
 : -3, 0
COCCc1nc2ccc(C(=O)N3CCN(c4ccccc4C)CC3C)cc2o1 (stereo not drawn)
 : 17, 9
CC(C)C(=O)NC(NC(=O)C(C)C)c1ccc(Br)cc1
 : 4, 1
CN(CCC1CCOCC1)C(=O)CC1C(=O)NCCN1CC1CCCCC1 (stereo not drawn)
 : -3&2, -3&3
CCCN(CC)c1ccc(C(=O)N2CCC(C(=O)N3CCC(C(N)=O)CC3)CC2)cc1
 : 6, 4
COCCNC(=O)c1c(NC(=O)c2ccc([N+](=O)[O-])cc2)sc2c1CCCC2
 : 4, 2
CC(C)C1CN(C(=O)C2CC=CCC2)CCS1 (stereo not drawn)
 : 0, -4
COCCN(CC(=O)N(CCc1c[nH]c2ccccc12)Cc1ccc(F)cc1)C(=O)Nc1ccc(Br)cc1
 : 29, 32
O=C(C/C=C/c1ccc(F)c(F)c1)c1ccc(Br)cc1
 : -2, -4
Cc1ccc(Nc2nc(NCc3ccc4c(c3)OCO4)nc3nccnc23)c(C)c1
 : 1, -1
CCSc1ncnc2c1sc1nc3c(cc12)COC(C)(C)C3
 : 18, 8

The list is partial; the hit share may differ from the screen's.
